WNV protease inh – inhibitors of WNV NS2B-NS3 protease, primary screen, biochemical, fluorogenic substrate; fluorogenic substrate Ex360/Em465; stronger effect = lower value; z-score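 (tested at a level between 10 and 100 µM)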; 0.18% of 65,000 active; AID 577, 2007;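 active means z-score at -3 or under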;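 further: score is relative to mean and spread of the compound wells of a plate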
Target sequence (P06935 1371-1501 limits assumed): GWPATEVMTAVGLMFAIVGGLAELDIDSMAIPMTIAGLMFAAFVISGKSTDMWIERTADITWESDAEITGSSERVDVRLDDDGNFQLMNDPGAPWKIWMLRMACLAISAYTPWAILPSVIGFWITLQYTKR
Target sequence (P06935 1502-1679 limits assumed): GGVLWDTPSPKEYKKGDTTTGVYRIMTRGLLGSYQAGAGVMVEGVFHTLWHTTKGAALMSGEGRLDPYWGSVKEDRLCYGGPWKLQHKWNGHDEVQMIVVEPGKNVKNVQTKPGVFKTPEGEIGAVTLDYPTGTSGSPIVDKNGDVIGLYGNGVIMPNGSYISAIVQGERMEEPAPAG
MT1-MMP promoter – inhibitors of MT1-MMP promoter transcription, cell-based, luciferase reporter, luminescence (AID 618); calls from a first round at 10 µM; hits with a dose series show EC50 in µM; 0.62% of 87,000 active; MT1-MMP promoter luciferase reporter cells, luminescence;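 active means over half of the reporter light lost at 10 µM or EC50 under 50 µM; inactive means the rest and hits that failed the dose series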;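 further: actives suppress MT1-MMP promoter-driven transcription so potencies describe inhibitors; HT1080 fibrosarcoma cells; overnight exposure; toxic or luciferase-blocking compounds were not removed from the actives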
Hsc70 – Hsc70 inhibitors, probe displacement, primary screen, biochemical, fluorescence polarization (AID 568) | Heat shock cognate 71 kDa protein (Homo sapiens) | Hsc70 fluorescence polarization, probe displacement; higher % means a stronger effect; strong numbers were not always called active | displacement, % at 20 µM, or IC50 in µM where a hit was titrated | 83,000 tested, under 10 active;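 active means displacement above 50% without optical interference and an IC50 on retest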;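 further: ATPase domain with a fluorescein-tagged ATP probe; 0% = vehicle and 100% = excess ADP; read after one hour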
* marks the source's active call; other numbers are inactive results; i = inactive; . = not tested or not shown; + = active, no number.

SMILES	WNV protease inh	MT1-MMP promoter	Hsc70
COc1ccc(-c2cc3nc4n(c(=O)c3s2)CCC4)cc1	1.3	+	0.9%
CC1(C)Cc2noc(N)c2C(C)(C)N1O	0.35	i	4.1%
CC(C)CCn1c(=O)c2ccccc2n2c(COC(=O)c3ccc(S(=O)(=O)N(C)C)cc3)nnc12	-1.6	i	-7.8%
O=C(CN1CCSCC1)c1c[nH]c2ccccc12	.	i	1.3%
O=C(CCC(=O)c1cccs1)Nc1nnc(C2CC2)s1	-0.13	i	8.2%
Clc1ccc(-c2nnc(NC3=NCCCCC3)o2)cc1	-0.65	+	-6.8%
O=C(CCS(=O)(=O)c1cccs1)NC1CCCCCC1	0.2	i	-2.9%
CCC(C(=O)NC1CCCC1)N(Cc1ccc2c(c1)OCO2)C(=O)c1snc(C(N)=O)c1N (stereo unspecified)	-0.9	i	-4.2%
CCOC(=O)c1sc2nc(C)cc(C)c2c1N	0.72	i	2.3%
CC1=NN(/C(=N\c2nnc(C)s2)Nc2ccc(C(C)(C)C)cc2)[C@H](c2ccc(C)cc2)S1	.	i	4.6%
OC(COC(c1ccc(Cl)cc1)c1ccc(Cl)cc1)CN1CCCC1 (stereo unspecified)	.	i	-3.2%
CSc1nc2ccccc2n1CC(=O)Nc1c(C)cccc1C	.	i	1.3%
CCOC(=O)C1C(=O)CC(C)(O)C(C(=O)OCC)C1c1ccccc1 (stereo unspecified)	.	i	-0.2%
COc1ccc(S(=O)(=O)NCCCN2CCOCC2)c2ccccc12	0.65	i	1.2%
COc1nc(/C(N)=N/O)nc(N2CCCCC2)n1	0.58	i	1.7%
Cc1ccc(-c2nc3nc4ccccc4nc3n2Cc2ccco2)cc1	-0.24	i	0.5%
[O-][n+]1onc2c3cc(-c4ccccc4)nnc3ccc21	.	i	13%
CCCCCCc1ccc(-c2ncc(N)cn2)cc1	-0.46	+	-1.9%
O=C1c2oc3ccccc3c(=O)c2C(c2ccccn2)N1Cc1ccccc1 (stereo unspecified)	0.36	i	5.2%
COc1cccc(-c2nc(CS(=O)(=O)CC(=O)NCc3ccccc3OC)c(C)o2)c1	-0.15	i	4.9%
CC(=O)NCc1nc2ccccc2n1Cc1ccccc1F	-0.02	i	1.0%
Cc1ccc(Cn2nnc3c(=O)n(CC(=O)NCc4ccco4)cnc32)cc1	-0.13	i	-5.6%
CCOC(=O)c1ccc(Cn2c(-c3ccccc3)nnc2-c2ccccc2)o1	0.45	i	-1.6%
Cc1ccc(/C=C/C2=Cc3c(sc(NC(=O)CSc4n[nH]c(N)n4)c3C#N)C(C)(C)C2)o1	-0.55	i	-22%
O=C(O)CNS(=O)(=O)c1ccc(Br)s1	1.2	i	-3.5%
CSc1ncccc1C(=O)OCC(=O)NC1CCS(=O)(=O)C1 (stereo unspecified)	0.96	i	4.7%
CCOC(=O)c1sc(-n2[nH]c(C)cc2=O)nc1C	0.51	i	-10%
CN(C)c1nc(OCCNC(=O)Nc2ccccc2)nc(N(C)C)n1	-2.2	i	-7.5%
COc1cc(OC)cc(C(=O)N2CCN(c3ccccc3F)CC2)c1	-1.1	i	-2.2%
COc1ccccc1C1(CC(=O)O)CCOC(C)(C)C1 (stereo unspecified)	0.86	i	1.5%
CC(C)n1cnc2cc(NCc3ccco3)ccc21	.	i	-1.7%
COC(=O)c1sc2nc(CSc3nc4ccc(C)cc4[nH]3)[nH]c(=O)c2c1C	.	i	-34%
Cn1ncc(Br)c1C(=O)N/N=C/c1ccc(OS(=O)(=O)c2ccccc2)cc1	.	i	3.4%
CCOC(=O)c1ccc2[nH]c(C)c(C)c2c1	.	i	-0.6%
Cc1nn2c(-c3cccc(NC(=O)c4ccco4)c3)nnc2c2ccccc12	1.9	i	6.8%
COc1ccccc1NC(=O)N1CCCC1C(=O)NC12CC3CC(CC(C3)C1)C2 (stereo unspecified)	0.33	i	-1.2%
c1ccc(-c2nc(NCc3ccco3)c3ccccc3n2)cc1	.	i	0.1%
O=C1c2ccccc2C(=O)N1CSc1ncccn1	1.5	i	-1.6%
O=C(CN1C(=O)c2ccccc2S1(=O)=O)NCc1ccc2c(c1)OCO2	.	i	0.4%
CCOC(=O)C1=C(N)OC2=C(C(=O)CCC2)C1c1ccc(C)s1 (stereo unspecified)	-0.19	i	-2.1%
CCN1C(=O)C2(C(C#N)=C(N)Oc3n[nH]c(-c4ccc(Cl)cc4)c32)c2ccccc21 (stereo unspecified)	.	i	0.8%
COc1cccc(OC)c1OCCCCCc1c(C)n[nH]c1C	-0.49	i	2.6%
CCNS(=O)(=O)c1ccc(OC)c(C)c1	1	i	4.4%
CCOC(=O)CN1CC23C=CC(O2)C(C(=O)Nc2cc(OC)ccc2OC)C3C1=O (stereo unspecified)	-2.1	i	-0.4%
Cc1ccc(CNC(=O)c2cccc(OCc3c(C)noc3C)c2)cc1	0.11	i	1.5%
CCN1C(=O)C(C(=O)Nc2ccc(OC)cc2)C2CC1(C)Oc1ccccc12 (stereo unspecified)	-0.62	i	-3.1%
O=c1ccn(Cc2ccccc2)c(=O)n1Cc1ccccc1	-0.27	i	0.9%
COc1ccc(C2C(C(=O)N3CCCC3)CC(=O)N2c2ccc(OC)cc2)cc1 (stereo unspecified)	-0.59	i	-1.1%
O=C(OCC(=O)c1c[nH]c2ccccc12)C1=COCCO1	0.46	i	3.6%
C=CCn1c(=NC(=O)C2CC2)sc2cc(NC(C)=O)ccc21	0.79	i	2.5%
Nc1nc(N)nc(-c2ccc(Cl)cc2)n1	.	i	0.8%
CCNc1nc(NCC)nc(N2CC(=O)N(CC(=O)OCC)C2=N)n1	.	i	3.9%
O=C(Nc1nnc(-c2ccccc2F)s1)C1CCCO1 (stereo unspecified)	.	i	1.7%
CCC(=O)N1CCc2cc(Br)cc(S(=O)(=O)N3CCN(C(=O)c4ccco4)CC3)c21	0.34	i	-7.0%
O=C(c1ccc(COc2ccccc2Br)o1)N1CCCCCC1	0.26	i	0.1%
Cc1cccc(Nc2nc(N)nc(CSc3nccc(C)n3)n2)c1	.	i	-1.4%
Cc1cccc(C)c1NC(=O)/C(=C/c1ccco1)c1ccccc1	.	i	-3.5%
O=C(NC1CC1)c1sccc1-n1cccc1	.	i	-1.2%
O=S1(=O)N=C(N2CCCc3ccccc32)c2ccccc21	-0.75	i	-10%
CCOC(=O)C1(CC)NC(c2ccc(N(C)C)cc2)C2C(=O)N(C)C(=O)C21 (stereo unspecified)	-0.63	i	-4.5%

Limited to WNV protease inh and MT1-MMP promoter (three entries from above):
SMILES,WNV protease inh,MT1-MMP promoter
C=CCn1c(=NC(=O)C2CC2)sc2cc(NC(C)=O)ccc21,0.79,i
O=S1(=O)N=C(N2CCCc3ccccc32)c2ccccc21,-0.75,i
CCOC(=O)C1(CC)NC(c2ccc(N(C)C)cc2)C2C(=O)N(C)C(=O)C21 (stereo unspecified),-0.63,i

Following part.
SMILES	WNV protease inh	MT1-MMP promoter	Hsc70
Fc1cccc(Cl)c1Cn1nnc2c(-n3ccnc3)ncnc21	2	i	-3.1%
Cn1c(=O)cc(SCC(=O)N2CCN(c3ccccn3)CC2)c2ccccc21	2.2	i	3.1%
CCCCNC(=O)CC(=O)Nc1ccccc1C(=O)O	-0.33	i	3.0%
O=C(O)c1cc2c(ccc3ccccc32)oc1=O	.	i	3.4%
CC1C(C#N)=C(N)OC2=C1C(=O)CCC2 (stereo unspecified)	-0.22	i	-1.1%
CC(=O)N1CCCc2cc(S(=O)(=O)NCCC3=CCCCC3)ccc21	1	i	-3.6%
CCCC(=O)N1CC2(CCC)CN(C(=O)CCC)CC(CCC)(C1)C2=O	-1	i	-0.8%
COCCn1c(SCC#N)nnc1-c1ccc(OC)cc1	.	i	1.1%
CCOc1cc(C(=O)Nc2nnc(CC)s2)ccc1OCC(=O)N1CCOCC1	.	i	-1.1%
O=C(Oc1oc(-c2ccco2)nc1C=Nc1ccccc1)c1ccoc1	0.25	i	2.1%
Cc1ccc(C2Nc3ccc4ccccc4c3C3=C2C(=O)CC(C)(C)C3)o1 (stereo unspecified)	.	i	6.9%
COc1ccc(OCC(=O)Nc2nc3ccccc3[nH]2)cc1	.	i	-1.4%
Cc1cc(NC(=O)CSc2nc3ccccc3n2CC(=O)N2CC(C)CC(C)C2)no1 (stereo unspecified)	-0.06	i	4.2%
CSc1nc(C)cc(OCC(=O)n2nc(C)cc2C)n1	-0.72	i	6.2%
CCCCOc1ccc(Cl)cc1CSc1nnc(C)n1N	1.1	i	-4.8%
Cc1ccc(-c2nc(CS(=O)CC(=O)NC3CCC(C)CC3)c(C)o2)cc1 (stereo unspecified)	-0.8	i	-3.2%
O=C(Nc1cccc2cccnc12)c1cccnc1	0.34	i	-3.0%
COC(=O)c1sccc1NC(=O)CSc1nnnn1-c1ccccc1F	-1.8	i	-2.8%
CC12CC3CC(C)(C1)CC(C(=O)Nc1nn[nH]n1)(C3)C2	-0.1	i	-3.0%
COc1ccc(OC)c(S(=O)(=O)NCCO)c1	-0.16	i	-5.5%
C=C(C)COc1ccc2oc(C)c(C(=O)OCCOC)c2c1	0.65	i	-4.7%
COc1ccc(NC(=O)c2ocnc2C)cc1OC	0.63	i	-3.8%
CC(=O)OCC1OC(n2ccc(=O)[nH]c2=O)C(O)C1O (stereo unspecified)	0.33	i	2.0%
CN(Cc1ccccc1)C(=O)c1cnc2n(c1=O)CCS2	2	i	0.8%
COc1ccc(Cc2nc(-c3cccs3)no2)cc1OC	-0.24	i	-1.5%
CC[N+](CC)(CC)C/C(N)=N/O	0.13	i	1.7%
CCS(=O)(=O)Nc1ccc(Cc2ccc(NS(=O)(=O)CC)cc2)cc1	.	i	6.6%
COc1cc2c(cc1OC)C(SC)=NC(C)(C)C2	.	i	-0.6%
Nc1nnnn1/N=C/c1ccccc1OCc1ccc(Cl)cc1	.	i	1.1%
CC(=O)Nc1ccc(NC(=O)CSCc2cnn(-c3ccccc3)c2-n2cccc2)cc1	.	i	1.7%
CC(C)CC1NC(=O)N(CC(=O)N2CCN(S(=O)(=O)c3ccc(Cl)cc3)CC2)C1=O (stereo unspecified)	0.34	i	0.9%
CCOC(=O)n1c(=O)oc2ccc(Cl)cc21	.	i	-0.5%
CSC(=NCCCN1CCOCC1)NS(=O)(=O)c1cccs1	0.83	i	5.6%
Cc1ccc(S(=O)(=O)N2CCCC2C(=O)N2CCCCCC2)cc1 (stereo unspecified)	1	i	1.9%
Cc1oc(-c2ccccc2F)nc1CSCC(=O)NCc1ccc2c(c1)OCO2	0.02	i	6.8%
O=C(N1CCOCC1)N1CCN(S(=O)(=O)N2CCCCC2)CC1	-0.81	i	-6.8%
C/C=C/c1c(F)c(F)c(Oc2ccc(C(=O)O)cc2)c(F)c1F	.	i	6.2%
O=C(O)CCn1c(=O)c2ccccc2c2ccccc2c1=O	0.04	i	-2.0%
CN(C)c1nc(SCC#N)nc(N2CCOCC2)n1	.	i	0.8%
COc1ccc(CCNC(=O)CN(c2ccccc2)S(C)(=O)=O)cc1OC	.	i	2.2%
NC(=O)C1(N2CCCCC2)CCN(Cc2ccccc2Cl)CC1	0.41	i	6.0%
CCOP1(=O)C=C(C(C)(C)C)OC1c1ccc(F)cc1 (stereo unspecified)	-0.3	i	6.0%
CC(C)NC(=O)C(=O)NC1CCCCCC1	.	i	-0.4%
Fc1ccc2nc3n(c2c1F)CCCCCC3	0.92	i	3.8%
O=C(N1CCC(O)(c2cccnc2)CC1)C12CC3CC(CC(C3)C1)C2	0.57	i	1.2%
CN(C)CCNC(=O)Cn1nc(-c2ccc(Cl)cc2)ccc1=O	-0.91	i	1.6%
Cc1cccc2cc(CN(CCCN3CCOCC3)Cc3nnnn3C(C)(C)C)c(=O)[nH]c12	0.51	i	-0.7%
Cc1ccc(C)c(C(=O)CCC(=O)Nc2cccnc2)c1	0.67	i	-0.7%
Cn1nnc(C(O)CN2CCOCC2)n1 (stereo unspecified)	0.53	i	-1.0%
COc1ccc(S(=O)(=O)N2CCC(C(=O)NCCc3ccc4c(c3)OCO4)CC2)cc1	-0.95	i	-3.2%
N#Cc1cccc(-n2nnnc2-c2ccccn2)c1	-0.56	i	2.6%

Structures from the list above with a furan ring, fused or not:
SMILES	WNV protease inh	MT1-MMP promoter	Hsc70
Cc1ccc(-c2nc3nc4ccccc4nc3n2Cc2ccco2)cc1	-0.24	i	0.5%
Cc1ccc(Cn2nnc3c(=O)n(CC(=O)NCc4ccco4)cnc32)cc1	-0.13	i	-5.6%
CCOC(=O)c1ccc(Cn2c(-c3ccccc3)nnc2-c2ccccc2)o1	0.45	i	-1.6%
Cc1ccc(/C=C/C2=Cc3c(sc(NC(=O)CSc4n[nH]c(N)n4)c3C#N)C(C)(C)C2)o1	-0.55	i	-22%
CC(C)n1cnc2cc(NCc3ccco3)ccc21	.	i	-1.7%
Cc1nn2c(-c3cccc(NC(=O)c4ccco4)c3)nnc2c2ccccc12	1.9	i	6.8%
c1ccc(-c2nc(NCc3ccco3)c3ccccc3n2)cc1	.	i	0.1%
CCC(=O)N1CCc2cc(Br)cc(S(=O)(=O)N3CCN(C(=O)c4ccco4)CC3)c21	0.34	i	-7.0%
O=C(c1ccc(COc2ccccc2Br)o1)N1CCCCCC1	0.26	i	0.1%
Cc1cccc(C)c1NC(=O)/C(=C/c1ccco1)c1ccccc1	.	i	-3.5%
O=C(Oc1oc(-c2ccco2)nc1C=Nc1ccccc1)c1ccoc1	0.25	i	2.1%
Cc1ccc(C2Nc3ccc4ccccc4c3C3=C2C(=O)CC(C)(C)C3)o1 (stereo unspecified)	.	i	6.9%
C=C(C)COc1ccc2oc(C)c(C(=O)OCCOC)c2c1	0.65	i	-4.7%

These rows are one share of the data. The share of hits here may be higher or lower than overall.
